FPRL1 binder: binds the human formylpeptide receptor-like-1 FPRL1. FPRL1-expressing cells, fluorescent ligand binding inhibition, flow cytometry. hit rate 0.3% among 24,000. P25090. inhibition, %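 (tested at 6.7 µM)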;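 also: 0% = buffer alone and 100% = receptor blocker peptide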
Target sequence (P25090 whole entry, looked up): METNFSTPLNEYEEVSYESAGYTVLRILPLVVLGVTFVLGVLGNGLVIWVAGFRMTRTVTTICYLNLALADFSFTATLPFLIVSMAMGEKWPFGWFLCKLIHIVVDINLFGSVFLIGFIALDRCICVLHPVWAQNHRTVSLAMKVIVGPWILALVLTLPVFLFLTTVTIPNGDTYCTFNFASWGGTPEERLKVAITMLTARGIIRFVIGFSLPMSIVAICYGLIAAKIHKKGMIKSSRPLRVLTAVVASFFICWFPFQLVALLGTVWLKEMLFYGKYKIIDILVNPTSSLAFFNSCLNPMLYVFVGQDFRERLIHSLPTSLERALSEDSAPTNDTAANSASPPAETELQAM
VCAM-1 down imaging: inhibitors of TNFa-induced VCAM-1 surface display, imaging, high-content imaging, pooled HUVEC, TNFa stimulus (AID 456) | HUVEC TNFa-induced VCAM-1 surface expression, immunofluorescence imaging; numbers were filed only for top-ranked candidate wells | one-dose inhibition, % at 5 µM; IC50 in µM for titrated hits | hit rate 0.2% among 10,000;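 active = top tenth filtered wells with inhibition above zero that passed visual or statistical confirmation; inactive = the rest, including hits rejected on review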;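 also: 0% = stimulated vehicle wells and 100% = unstimulated cells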
VCAM-1 down: inhibitors of TNFa-induced VCAM-1 surface display, cell-based, plate reader, pooled HUVEC, TNFa stimulus (AID 454); HUVEC TNFa-induced VCAM-1 surface immunofluorescence, plate reader; numbers were filed only for top-ranked candidate wells; inhibition, % at 5 µM; hit rate 0.2% among 10,000;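 active = compound among top-ranked inhibitors of TNF-induced VCAM-1 adhesion protein staining, with the hit upheld by image or statistical review; inactive = the rest, including hits rejected on review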;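 also: 0% = TNFa with vehicle and 100% = cells without TNFa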
FPR binder: binds the human formylpeptide receptor FPR; AID 440; P21462; inhibition, %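 (tested at 6.7 µM)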; hit rate 0.74% among 24,000; FPR-expressing cells, fluorescent ligand binding, flow cytometry;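 also: 0% = buffer wells and 100% = receptor blocker peptide wells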
Target sequence (P21462 whole entry, looked up): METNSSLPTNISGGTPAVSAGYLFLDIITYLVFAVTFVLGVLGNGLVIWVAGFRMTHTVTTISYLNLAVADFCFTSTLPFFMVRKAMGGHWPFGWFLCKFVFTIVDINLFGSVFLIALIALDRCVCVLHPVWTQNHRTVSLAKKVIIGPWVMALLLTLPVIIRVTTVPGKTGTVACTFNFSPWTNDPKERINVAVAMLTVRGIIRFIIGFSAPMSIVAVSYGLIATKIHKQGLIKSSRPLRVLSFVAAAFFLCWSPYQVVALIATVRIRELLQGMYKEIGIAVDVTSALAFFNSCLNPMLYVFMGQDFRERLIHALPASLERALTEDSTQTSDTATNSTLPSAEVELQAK
VCAM-1 up imaging: boosters of cytokine-driven VCAM-1 levels – imaging, high-content imaging, pooled HUVEC, TNFa stimulus (AID 457) | Pooled HUVEC, TNFa-induced VCAM-1 immunofluorescence imaging; hits of this screen are not shown here | calls only | hit rate 0.2% among 10,000;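 active = a top-ranked rise in VCAM-1 staining upheld on image or statistical review; inactive = the rest, including candidates rejected on review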;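 also: compounds tested at 5 µM in the well; cells exposed to compound for 24 hours before fixing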
The depositor's hits bear a star; i = inactive; . = not tested or not shown.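 The calls were made as follows, unless noted: active = mean above 30%; inconclusive = self-fluorescent; inactive = the rest.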 An excerpt; count on the stated rates, not on these rows.

Every second line gives: FPRL1 binder, VCAM-1 down imaging, VCAM-1 down, FPR binder, VCAM-1 up imaging
[1] CC1(C(=O)NC2CCCCC2)CCC(=O)N1Cc1cccs1 (configuration not stated)
    3, i, i, 4, i
[2] O=C(c1ccc(-c2ccccc2)cc1)N1CCN(c2nc3ccccc3o2)CC1
    -3, ., ., 4, .
[3] O=C(CN1CCN(Cc2ccccc2Cl)C1=O)NCC1CCCO1 (configuration not stated)
    -1, ., ., -10, .
[4] CC(=O)NC(CCS(C)(=O)=O)C(=O)Nc1ccccc1Cl (configuration not stated)
    0, ., ., -1, .
[5] CCCN1C(=O)CC(c2ccco2)Sc2ccccc21 (configuration not stated)
    6, ., ., 0, .
[6] CCOC(=O)C1=C(C)N(CCO)C(=O)NC1c1cccc(O)c1 (configuration not stated)
    -3, ., ., -1, .
[7] CC(=O)c1ccccc1OCCn1nnc(-c2ccc(C)cc2)n1
    -4, i, i, 1, i
[8] CCOC(=O)c1c(C)c(C(=O)NCc2ccc3c(c2)OCO3)c(C)n1CC
    -3, ., ., 0, .
[9] CCCCOc1ccccc1C(=O)NCCCC(=O)O
    -3, i, i, 4, i
[10] O=C(NCC(c1cccnc1)N1CCN(c2ccc(F)cc2)CC1)c1ccccc1 (configuration not stated)
    2, ., ., -1, .
[11] Cc1ccc(NC(=O)CSc2nnc(-c3ccccn3)n2C)cc1
    1, i, i, -3, i
[12] O=C(CCNS(=O)(=O)c1ccc(Cl)cc1)NCc1ccccn1
    3, i, i, 10, i
[13] COc1ccc(NC(=O)Nc2ccc3c(c2)N(C)C(=O)CS3)cc1OC
    1, ., ., -3, .
[14] CCOC(=O)N1CCN(C(=O)c2ccc3c(=O)n(CCOC)c(=O)[nH]c3c2)CC1
    -7, ., ., -2, .
[15] Cc1oc2c(CN3CCCC3)c(O)ccc2c(=O)c1-c1ccccc1
    -2, i, i, 0, i
[16] O=C(C1=C(O)C(=O)N(c2ncccn2)C1c1ccc(Cl)c(Cl)c1)c1ccco1 (configuration not stated)
    29, ., ., 45*, .
[17] O=C(c1scc2c1CCCC2)N1CCOCC1
    0, ., ., 4, .
[18] COc1cc(NC(=O)CN(c2ccc(C)cc2)S(=O)(=O)c2c(C)n[nH]c2C)cc(OC)c1
    -5, ., ., 6, .
[19] CC1Cc2ccccc2N1S(=O)(=O)c1cccc(C(=O)OCC(=O)NC2CCS(=O)(=O)C2)c1 (configuration not stated)
    3, i, i, -3, i
[20] c1cnc2c(SCc3ccc(-c4nnco4)cc3)cccc2c1
    4, i, i, -1, i
[21] O=C(Nc1nccs1)C1(S(=O)(=O)c2ccc(Cl)cc2)CC1
    8, ., ., -3, .
[22] O=C(NC1CCCCC1NC(=O)c1ccco1)c1ccco1 (configuration not stated)
    4, i, i, -4, i
[23] CCOC(=O)CC(Nc1nc(N2CCOCC2)nc(N2CCOCC2)n1)c1ccccc1Cl (configuration not stated)
    -1, ., ., 4, .
[24] COc1ccc(C(NC(=O)c2ccco2)c2ccc(OC)c(OC)c2)cc1 (configuration not stated)
    9, i, i, -1, i
[25] CC(C)(C)Nc1nc(NC(C)(C)C)nc(-n2ccnc2)n1
    1, i, i, 0, i
[26] Cc1cccc(NC(=O)CSc2nnc(-c3cc(C)n(-c4ccccc4)c3C)o2)c1C
    -5, i, i, 0, i
[27] COc1ccccc1N1CCN(C(=O)c2cc(-c3ccc(Cl)c(Cl)c3)on2)CC1
    0, i, i, -3, i
[28] Oc1[nH]c2ccccc2c1C=Nc1ccc2c(c1)OCCO2
    -5, ., ., 2, .
[29] CC(=O)Nc1cc(NC(C)=O)cc(C(=O)OCC(=O)N2CC(C)OC(C)C2)c1 (configuration not stated)
    -4, i, i, -4, i
[30] CCOC(=O)CNC(=O)CSc1ncnc2c1cnn2-c1ccccc1
    10, i, i, -6, i
[31] C/C(N)=C(\C#N)C(=O)NCCc1ccccn1
    -5, i, i, 3, i
[32] Cc1cccc(-n2nnc(C(=O)Nc3ccc(F)cc3)c2N)c1
    -4, ., ., 2, .
[33] CC1CCCCC1NS(=O)(=O)c1ccc(S(=O)(=O)N2CCN(CCC#N)CC2)cc1 (configuration not stated)
    1, ., ., 0, .
[34] CCOC(=O)c1[nH]c(C)c(C(=O)NCc2cccnc2)c1C
    -2, ., ., 3, .
[35] COc1ccc(CC(=O)OCn2nnc3ccccc3c2=O)cc1
    -3, i, i, -6, i
[36] Cc1noc(C)c1S(=O)(=O)NCCN1CCN(c2ccccc2)CC1
    -9, i, i, -2, i
[37] Cc1cc(OCC(C)C)ccc1/C(O)=C1/C(=O)C(=O)N(Cc2cccnc2)C1c1ccncc1 (configuration not stated)
    4, ., ., -1, .
[38] COc1ccc(NC(=O)c2oc3ccccc3c2NC(=O)C(C)(C)C)cc1
    1, ., ., 0, .
[39] COc1ccccc1Oc1c(C)oc2c(CN(C)C)c(O)ccc2c1=O
    30*, ., ., 22, .
[40] CC(C(=O)Nc1ccc(C(=O)O)cc1)N1C(=O)c2ccccc2C1=O (configuration not stated)
    2, ., ., 2, .
[41] COc1cccc(C(=O)Nc2c3c(nn2-c2cccc(C)c2C)CS(=O)(=O)C3)c1OC
    -9, ., ., 2, .
[42] CCCCCc1nc2c(=O)[nH]c3ccccc3c2o1
    -3, ., ., -7, .
[43] O=C(NCc1cccs1)C1CCCN(c2ncccn2)C1 (configuration not stated)
    7, i, i, 11, i
[44] CCCS(=O)(=O)N1CCC(C(=O)NCCN2CCCC2)CC1
    5, i, i, 3, i
[45] Cn1c(=O)oc2cc(S(=O)(=O)N3CCCC(C(=O)NCc4cccs4)C3)ccc21 (configuration not stated)
    -12, ., ., -4, .
[46] CCS(=O)(=O)N1CCC(C(=O)NC2CCCCCCC2)CC1
    6, i, i, -4, i
[47] COc1ccccc1OCC(O)CN1C(=O)NC(C)(C)C1=O (configuration not stated)
    0, ., ., 0, .
[48] COC(=O)c1ccc(Oc2c(C(F)(F)F)oc3c(CN4CCN(C)CC4)c(O)ccc3c2=O)cc1
    5, ., ., -15, .
[49] CCCCn1nnc(NC(=O)c2cc3ccccc3o2)n1
    -5, i, i, -2, i
[50] CC(=O)NC(CCS(C)(=O)=O)C(=O)Nc1nccs1 (configuration not stated)
    -2, ., ., 0, .
[51] COCC(=O)Nc1ccc(-c2cn3cccnc3n2)cc1
    6, ., ., 4, .
[52] CCC(=O)N1CCc2cc(S(=O)(=O)NCCN3CCC(C)CC3)ccc21
    -1, ., ., -8, .
[53] Cc1ccc2c(c1)N(CCCC(=O)NCCC1=CCCCC1)C(=O)CO2
    16, ., ., 28, .
[54] COC(=O)CSC1=NS(=O)(=O)c2ccccc21
    13, i, i, -5, i
[55] O=S(=O)(c1cnc[nH]1)N1CCCCCC1
    -9, ., ., 2, .
[56] CCS(=O)(=O)NC(C)C(c1cccs1)N1CCN(C)CC1 (configuration not stated)
    -5, ., ., -1, .
[57] Cc1[nH]n(C(N)=S)c(=O)c1C(c1ccccc1)C(C#N)C#N (configuration not stated)
    1, i, i, -7, i
[58] O=C(Nc1ccc(Cl)cc1F)c1ccc(COc2c(F)c(F)c(F)c(F)c2F)o1
    8, ., ., -1, .
[59] CC(=O)c1c(C)nc(C)nc1NC(=O)Cc1ccccc1
    6, i, i, -14, i
[60] CCOc1ccc(NC(=O)c2oc3ccccc3c2NC(=O)C(C)C)cc1
    -3, ., ., -4, .

(continued)
Every second line gives: FPRL1 binder, VCAM-1 down imaging, VCAM-1 down, FPR binder, VCAM-1 up imaging
[61] CCOC(=O)N1CCC(NC(=O)C2CCN(C(=O)N3CC(C)Oc4ccc(C)cc43)CC2)CC1 (configuration not stated)
    -4, ., ., -4, .
[62] CC(=O)OC1CCC(OC(C)=O)c2c1n([O-])c(C)c(C)[n+]2=O (configuration not stated)
    5, ., ., 2, .
[63] CCN1CCN(C(=O)c2cc3c(s2)-c2ccccc2S(=O)(=O)C3)CC1
    -1, ., ., -4, .
[64] CCOc1ccc(C2=Nn3c(nnc3-c3ccccc3)SC2)cc1Cl
    1, ., ., -6, .
[65] COc1ccc(CNC(=O)CCS(=O)(=O)c2cccc3nonc23)cc1
    -3, ., ., -5, .
[66] CC(C)Sc1nc2c(c(=O)n1-c1ccc(F)cc1)SCC2
    -5, i, i, -6, i
[67] COc1ccc(NC(=O)CN(c2ccc(C)cc2)S(=O)(=O)c2c(C)nn(C)c2C)cc1OC
    14, ., ., -5, .
[68] O=C(Cc1ccsc1-c1ccccc1)NO
    1, i, i, 6, i
[69] Cc1cccc(-n2c(Cc3cc(=O)[nH]c(=O)[nH]3)nnc2SCC(=O)N2CCCCC2)c1
    10, ., ., 17, .
[70] O=S1(=O)C=C(Sc2nc3cc(Cl)ccc3o2)c2ccccc21
    -44, ., ., -20, .
[71] COc1ccc(N2C(=O)CCC(C(=O)N3CCOCC3)C2c2ccc(F)cc2)cc1 (configuration not stated)
    -5, ., ., 2, .
[72] Fc1ccc2nc3[nH]c4ccccc4c3nc2c1
    6, ., ., 9, .
[73] Cc1cc(C)c2c(n1)nn1c(C3CC3)cc(C(F)(F)F)nc21
    1, i, i, 1, i
[74] Cc1ccc(C(=O)NCCNC(=O)CN2CCOCC2)cc1
    -2, ., ., -1, .
[75] COc1cccc(-c2nn(C)c3sc(C(=O)NCc4ccc5c(c4)OCO5)cc23)c1
    -9, ., ., -5, .
[76] Cc1nc2ccc(S(=O)(=O)N(C)CC(=O)NCc3ccc4c(c3)OCO4)cc2s1
    -4, ., ., -2, .
[77] CC(=O)OC1c2ccccc2C(=O)N1c1ccccc1C (configuration not stated)
    -1, i, i, -2, i
[78] CC1=C(C(=O)Nc2cccnc2)C(c2ccc(C(C)C)cc2)n2ncnc2N1 (configuration not stated)
    4, i, i, -5, i
[79] C=CCOC(=O)C1=C(C)Nc2ncnn2C1c1cc(Br)ccc1F (configuration not stated)
    -5, ., ., -2, .
[80] CCOC(=O)CN1C(=O)COc2ccc(C(C)(C)C)cc21
    0, ., ., 1, .
[81] CCOC(=O)c1ccccc1NC1c2ccccc2C(=O)N1c1ccc(C)cn1 (configuration not stated)
    -5, ., ., -2, .
[82] COc1cccc(C2=CC(c3cccc(OC)c3OC)n3nnnc3N2)c1 (configuration not stated)
    -1, ., ., -2, .
[83] CCCCCSc1nncc(=O)[nH]1
    7, ., ., 4, .
[84] CC(=O)N1CCc2cc(S(=O)(=O)NCCC(=O)Nc3cc(C)cc(C)c3)ccc21
    -1, i, i, 0, i
[85] COC(=O)N(C)CCCC1(C)C(=O)N(C)c2ccc(O)cc21 (configuration not stated)
    -2, ., ., -3, .
[86] Cc1cccc(C)c1OCc1nnc(SCC(=O)Nc2ccccc2F)o1
    -3, i, i, 3, i
[87] Cc1cc2nc3c(nc2cc1C)C1(C(=O)O)CCC3(C)C1(C)C (configuration not stated)
    -9, i, i, 2, i
[88] Nc1nc(CN2CCOCC2)cs1
    1, i, i, 1, i
[89] CC(CCc1ccccc1)NCC(O)c1ccc(O)c(C(N)=O)c1 (configuration not stated)
    10, i, i, 11, i
[90] CCN(CC)CCOC(=O)c1ccc(NC(=O)COc2cc(=O)n(CC)c3ccccc23)cc1
    5, i, i, -5, i
[91] O=C(O)CC1Oc2ccc(Cl)cc2NC1=O (configuration not stated)
    37*, ., ., -38, .
[92] CCOC(=O)N1CCN(C(=O)C(C)n2nc(C)n3c(cc4sccc43)c2=O)CC1 (configuration not stated)
    1, ., ., -2, .
[93] CC1Oc2ccccc2N(CC(=O)N(Cc2ccccc2)Cc2ccccn2)C1=O (configuration not stated)
    4, i, i, -4, i
[94] O=C(CCCn1c(=O)c2sccc2n(CC(=O)NCc2ccco2)c1=O)NCc1ccco1
    6, i, i, -1, i
[95] Cc1ccc(C(=O)C2=C(O)C(=O)N(CCN3CCOCC3)C2c2ccccn2)o1 (configuration not stated)
    13, ., ., 9, .
[96] Cc1ccc(NC(=O)C2CCCN(S(=O)(=O)c3cnc[nH]3)C2)cc1C (configuration not stated)
    1, i, i, -2, i
[97] COc1ccc(CN2CC(C(=O)NCCCN3CCOCC3)CC2=O)cc1 (configuration not stated)
    7, ., ., -6, .
[98] CCOC(=O)C1CCN(C(=O)CCn2c(=O)[nH]c3ccsc3c2=O)CC1
    1, ., ., -12, .
[99] O=c1[nH]c(N2CCc3ccccc32)nc2c1CCCC2
    -3, i, i, 3, i

In another format: entries from further up
entry | FPRL1 binder | VCAM-1 down imaging | VCAM-1 down | FPR binder | VCAM-1 up imaging | molecule
83 | 7 | . | . | 4 | . | CCCCCSc1nncc(=O)[nH]1
84 | -1 | i | i | 0 | i | CC(=O)N1CCc2cc(S(=O)(=O)NCCC(=O)Nc3cc(C)cc(C)c3)ccc21
85 | -2 | . | . | -3 | . | COC(=O)N(C)CCCC1(C)C(=O)N(C)c2ccc(O)cc21 (configuration not stated)
86 | -3 | i | i | 3 | i | Cc1cccc(C)c1OCc1nnc(SCC(=O)Nc2ccccc2F)o1
87 | -9 | i | i | 2 | i | Cc1cc2nc3c(nc2cc1C)C1(C(=O)O)CCC3(C)C1(C)C (configuration not stated)
88 | 1 | i | i | 1 | i | Nc1nc(CN2CCOCC2)cs1
